# Screening results as filed in PubChem BioAssay.
# SARS PLP yeast = qHTS of Yeast-based Assay for SARS-CoV PLP; S. cerevisiae expressing SARS-CoV PLpro, growth rescue; control for the full effect not named in the record; Potency, µM (doses to about 32.9 µM), for the others: top-dose activity, positive = growth rescue; 0.19% of 330,000 active; AID 485353, 2010; note: 0% is about no effect; nearly all actives have a fitted effect of over 55% in size; growth read by luminescence after 48 h
# LASV entry inh = qHTS for Inhibitors of binding or entry into cells for Lassa Virus; Lassa virus pseudotype entry inhibition, cell reporter; control for the full effect not named in the record; Potency, µM (doses to about 37.9 µM), without a hit: top-dose activity change, negative = inhibition, usual class: inhibitors; 1.2% of 300,000 active; active means well fitted inhibition curve with a large enough effect; inconclusive means small, poorly fitted or top-dose-only effect, or effect the other way; inactive means flat fitted curve, though single readings scatter; tested in HEK293 cells; note: % is set by controls: 0 for no effect and ±100 for the full control effect; nearly all actives have a fitted effect of over 50% in size; luciferase read-out
# NS1 function inh = qHTS Assay for Inhibitors of Influenza NS1 Protein Function | S. cerevisiae slowed by influenza A NS1, growth recovery by OD600 | Potency, µM (doses to about 46.1 µM), without a hit: top-dose activity, positive = more growth | 0.4% of 270,000 active; note: actives are rising curves; nearly all actives have a fitted effect of over 50% in size
#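 Recovery from NS1-induced slow growth read by OD600 in budding yeast switched to galactose assay medium (pH 6.0, -URA) at 1:100 dilution. Compound 23 nl per well; the matching strain lacking NS1 serves as control.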
# * = called active by the depositor; u = inconclusive; x = no result given; & = joins results of further samples; [ ] = remark or other dose. Unless noted, calls come from the whole dose curve; as a rule, active means well fitted rising curve with a large enough effect; inconclusive means small, poorly fitted or top-dose-only effect; inactive means no such curve, though single readings can be large or run the other way. Potency is the fitted concentration of half-maximal effect. A portion of the library; count on the stated rates, not on these rows.
structure,NS1 function inh,SARS PLP yeast,LASV entry inh
COc1ccc(/C=C2\SC(=S)N(NC(=O)c3ccncc3)C2=O)cc1OC,-0.1%,0.3%,x
O=C(Nc1nnc(SCc2c(Cl)cccc2Cl)s1)c1ccc2ncsc2c1,1.3%,-1.6%,x
CC(C)CCNC(=O)c1ccc(-c2ccccc2)cc1,-9.2%,-0.9%,x
Cc1cccc(C(=O)NC2CCCc3ccccc32)c1 (stereo not drawn),-0.9%,-2.5%,x
Cc1nnc(C)c2c(C)n(-c3cccc4cccnc34)c(C)c12,11.4%,-2.1%,x
COc1cc2ccccc2cc1C(=O)NNC(=O)c1ccccc1O,-20.6%,u,x
COc1ccc(C(=O)/C=C/c2ccc(-c3ccccc3)cc2)cc1CSCC(=O)O,13.4%,0.1%,x
O=Cc1ccc(OC(=O)Cc2ccc(F)cc2)cc1,-10.7%,7.8%,x
COCCN1C(=S)N[C@@H](c2cccc(F)c2)C(C(=O)OC)=C1C,6.0%&12.3%,7.3%&-5.0%,x
Cc1cc2c(c(=O)n1Cc1ccccc1)C1O[C@](c3ccsc3)(Cc3cc(C#N)ccc31)O2,28.6%,-2.5%[6.58 µM],x
COc1ccc(-n2c(SCC(=O)N3CCCC3)nc3ccccc3c2=O)cc1,-1.4%,0.4%,x
CCOc1cc(NC(=O)c2cnccn2)c(OCC)cc1NC(=O)c1cccc(F)c1,5.5%,0.3%,x
CC(C)c1ccc(Nc2nccc(-c3cnn4ncccc34)n2)cc1,x,x,11.2µM*
CCOc1ccccc1-c1ccc(C(=O)NCc2ccc(Cl)cc2)o1,x,x,u
CCCCCCN1C[C@H](O)[C@@H](n2cc(C3CC3)nn2)C[C@H]1c1ccccc1,x,x,-1.7%[46.1 µM]
CN(C)[C@H]1CCN([C@@H]2C[S+](=O)([O-])N[C@@H]2COCc2ccccc2)C1,x,x,3.5%[46.1 µM]
CCCCCC(=O)N1C[C@@H](n2cc(C3CC3)nn2)[C@H](O)C[C@H]1c1ccccc1,x,x,12.7%[46.1 µM]
C#CCN1CC(COCCCC)Oc2cccc(F)c2S1(=O)=O (stereo not drawn),x,x,-1.4%[46.1 µM]
CC(C)(CO)CNC(=O)c1ccc2[nH]c(O)c(N=Nc3ccc(S(N)(=O)=O)cc3)c2c1,x,x,1.58µM*
C=CCCN(Cc1ccc(C)cc1)S(=O)(=O)C=C,x,x,-0.4%[46.1 µM]
CN1CCC(n2cnc(-c3ccc(F)cc3)c2-c2ccnc(Nc3ccccc3)n2)CC1,x,x,15.8µM*
O=C1N[C@@H](Cc2ccccc2)C(=O)N2[C@H]1CSCCS2(=O)=O,x,x,-20.4%[46.1 µM]
COC(=O)c1ccc2c(c1)/C(=C/c1cc(Br)c(O)c(Br)c1)C(=O)N2,x,x,u
O=C(Nc1c(F)c(F)c(F)c(F)c1F)OC[C@@H]1CSCCS(=O)(=O)N1,x,x,4.9%[46.1 µM]
CCCN1CCC(Oc2cc(Nc3nc(Nc4cccc(F)c4C(N)=O)c4cc[nH]c4n3)c(OC)cc2Cl)CC1,x,x,12.5µM*
COc1ccc2cc(-c3c(-c4ccncc4)nc(-c4ccc(S(C)(=O)=O)cc4C)n3C)ccc2c1,x,x,7.91µM*
Cc1cccc(CN2[C@@H](C)[C@H](c3ccccc3)Oc3cc(Br)ccc3S2(=O)=O)c1,x,x,1.0%[46.1 µM]
C=CCN1C[C@H](COC(=O)CSc2ccccc2)Oc2cccc(F)c2S1(=O)=O,x,x,u
CCn1c(-c2nonc2N)nc2c(C#CC(C)(C)O)nc(OCCNC)cc21,x,x,u
COc1cc(Nc2ncc(-c3ccccc3)o2)cc(OC)c1,x,x,u
O=C(NC1CCCCC1)OC[C@@H]1CSCCS(=O)(=O)N1,x,x,u
C=C[C@@H]1C[C@H](C=C)OP(=O)(OCC(=C)C)O1 (stereo partly drawn),x,x,u
O=C(c1cccs1)N1C[C@@H](n2cc(C3CC3)nn2)[C@@H](O)C[C@@H]1c1ccc(Cl)cc1,x,x,7.6%[46.1 µM]
COc1cc2c(cc1Nc1nc(Nc3cccc(F)c3C(N)=O)c3cc[nH]c3n1)N(C(=O)CN1CCN(C(C)C)CC1)CC2,x,x,u
O=S(=O)(CCNCc1ccc(-c2ccc3ncnc(Nc4ccc(OCc5cccc(F)c5)c(Cl)c4)c3c2)o1)c1ccccc1,x,x,u
O=S1(=O)CC(N2CCC(c3ccccc3)CC2)CN1Cc1cn(Cc2ccc(C(F)(F)F)cc2)nn1 (stereo not drawn),x,x,u
CC(Oc1cc(-n2cnc3ccc(OCC4CCN(C)CC4)cc32)sc1C(N)=O)c1ccccc1C(F)(F)F (stereo not drawn),x,x,u
O=C(OC1CNC(C#Cc2cc3ncnc(Nc4ccc5c(cnn5Cc5ccccc5)c4)c3s2)C1)N1CCOCC1 (stereo not drawn),x,x,1.25µM*
O=[S+]1([O-])C[C@@H](N2CCN(CCO)CC2)[C@@H](COCc2ccccc2)N1,x,x,11.6%[46.1 µM]
C=C[C@H](CCCCCC)[C@@H]1C[C@H](CCCCCCCCCCC)O[P@](=O)(OC)O1,x,x,u
O=S1(=O)N[C@H](Cc2ccccc2)COc2cc(F)ccc21,x,x,3.1%[46.1 µM]
CCCC=Cc1ccc(CN2C(C(C)C)C(=O)N(Cc3cn(Cc4ccco4)nn3)CCS2(=O)=O)cc1 (stereo not drawn),x,x,u
O=S1(=O)[C@H]2C[C@H]3O[C@]2(CN1Cc1ccc(C(F)(F)F)cc1)[C@@H]1O[C@@H]13,x,x,u
Fc1ccc(-c2ncn(C3CCNCC3)c2-c2ccnc(Oc3ccc4c(c3)OCO4)n2)cc1,x,x,12.5µM*
COc1ccc(-c2nn3ncccc3c2-c2ccnc(Nc3ccc4c(c3)OCCO4)n2)cc1,x,x,15.8µM*
COC(=O)CCN(Cc1cccc(OC)c1OC)S(=O)(=O)c1ccccc1Br,x,x,u
NC(=O)Cc1ccccc1Oc1nccc(-c2c(-c3ccc(F)cc3)ncn2C2CCNCC2)n1,x,x,-15.5%
CC(C)C[C@H]1COc2cc(F)ccc2S(=O)(=O)N1,x,x,-1.8%[46.1 µM]
NC(=O)c1ccc(Oc2nccc(-c3c(-c4ccc(F)cc4)ncn3C3CCNCC3)n2)cc1,x,x,u
C[C@H]1[C@@H](c2ccccc2)Oc2ccc(Cl)cc2S(=O)(=O)N1Cc1cccc(F)c1,x,x,u
CCn1c(-c2nonc2N)nc2c(C#CC(C)(C)O)nc(OC(CN)c3ccccc3)cc21 (stereo not drawn),x,x,8.88µM*
CCn1c(-c2nonc2N)nc2ccc(F)cc21,x,x,u
C[C@H]1COc2cc(N3CCCC3)ccc2S(=O)(=O)N1,x,x,0.9%[46.1 µM]
COC[C@@H]1N[S+](=O)([O-])c2ccc(Br)cc2O[C@@H]1c1ccccc1,x,x,u
CN(C)CCCNc1nccc(-c2c(-c3ccc(F)cc3)nn3cc(C(F)(F)F)ccc23)n1,x,x,22.3µM*
COc1cc(C=NNc2ncnc3c2cnn3C(C)C)ccc1O,x,x,12.5µM*
CN1CCN(C(=O)c2ccc(NC(=O)Nc3ccc(N(C)c4ccnc(Nc5ccc(CS(C)(=O)=O)cc5)n4)cc3)cc2)CC1,x,x,u
O=C(C1CCCCC1)N1C[C@H](O)[C@H](n2cc(C3CC3)nn2)C[C@@H]1c1ccccc1,x,x,u
CCCN1CCC(c2ccc(Nc3nc(Nc4cc(F)ccc4C(N)=O)c4cc[nH]c4n3)c(OC)c2)CC1,x,x,u
COc1cc2c(cc1Nc1nc(Nc3ccsc3C(N)=O)c3cc[nH]c3n1)N(C(=O)CN(C)C)CCC2(C)C,x,x,0.499µM*

# Reformatted: entries from further up
# Value order: NS1 function inh | SARS PLP yeast | LASV entry inh
CN1CCN(C(=O)c2ccc(NC(=O)Nc3ccc(N(C)c4ccnc(Nc5ccc(CS(C)(=O)=O)cc5)n4)cc3)cc2)CC1
 : x | x | u
O=C(C1CCCCC1)N1C[C@H](O)[C@H](n2cc(C3CC3)nn2)C[C@@H]1c1ccccc1
 : x | x | u

# More results.
structure,NS1 function inh,SARS PLP yeast,LASV entry inh
Cc1ccc2[nH]c(O)c(N=Nc3ccc(S(N)(=O)=O)cc3)c2c1,x,x,3.97µM*
COc1cc(Nc2nccc(-c3cnn4ncccc34)n2)cc(OC)c1,x,x,2.5µM*
O=S1(=O)CC(O)c2cc(Br)ccc2N1Cc1cccc(F)c1 (stereo not drawn),x,x,u
CS(=O)(=O)Nc1ccc(-c2cc(-c3ccccc3)cc(C(N)=O)c2N)cc1,x,x,u
NS(=O)(=O)c1ccc(N=Nc2c(O)[nH]c3ccc(C(=O)NCCCn4ccnc4)cc23)cc1,x,x,3.15µM*
c1ccc(-c2[nH]ncc2-c2ccnc(-c3ccc(OCCn4ccnc4)cc3)c2)nc1,x,x,u
CCN1CCC(CC(=O)Nc2n[nH]c3nc(-c4cccs4)c(Br)cc23)CC1,x,x,u
CS(=O)(=O)CCNCc1ccc(-c2ccc3ncnc(Nc4ccc(OCc5ccccc5)c(Cl)c4)c3c2)o1,x,x,u
CCN1CCC(C(=O)Nc2n[nH]c3nnc(-c4cccc(F)c4F)cc23)CC1,x,x,u
O=S1(=O)N[C@H](Cc2ccccc2)COc2cc(N3CCCCC3)ccc21,x,x,u
O=S1(=O)c2ccc(Br)cc2O[C@H]2CCN1C2,x,x,u
C[C@@H]1[C@@H](c2ccccc2)Oc2c(Cl)cccc2S(=O)(=O)N1Cc1ccc(Cl)cc1,x,x,u
CCOc1ccc2c(-c3ccnc(Nc4cccc(C(F)(F)F)c4)n3)cnn2n1,x,x,u
CCS(=O)(=O)c1ccc(OC)c(Nc2nccc(N(C)c3ccc4c(C)[nH]nc4c3)n2)c1,x,x,u
O=C(C1CCCCC1)N1C[C@H](O)[C@H](n2cc(C3CC3)nn2)C[C@@H]1c1ccc(Cl)cc1,x,x,-14.9%[46.1 µM]
Clc1ccc(CNc2nccc(-c3cnn4ncccc34)n2)cc1,x,x,u
O=S1(=O)N[C@@H](Cc2ccccc2)COc2cc(NC3CC3)ccc21,x,x,u
CSC[C@H]1CN(Cc2ccccc2)C(=O)[C@H]1CC(=O)Nc1ccccc1,x,x,-7.7%[46.1 µM]
Nc1ncnc2occ(-c3ccc(NC(=O)Nc4cc(C(F)(F)F)cc(C(F)(F)F)c4)cc3)c12,x,x,19.9µM*
C[C@H]1[C@H](c2ccccc2)Oc2cc(Br)ccc2S(=O)(=O)N1Cc1cccc(Cl)c1,x,x,u
COc1cccc(-c2c[nH]c3c(NN=Cc4ccncc4)ncnc23)c1,x,x,u
CCCC=Cc1ccc(CN2C(C)C(=O)N(Cc3cn(CCOCOC)nn3)CCS2(=O)=O)cc1 (stereo not drawn),x,x,u
CCS(=O)(=O)c1ccc(OC)c(Nc2ncc(-c3cccc(F)c3)o2)c1,x,x,-33.8%
CCn1c(-c2nonc2N)nc2c(C#CC(C)(C)O)ncc(OCC3CCNCC3)c21,x,x,u
CN1CCC(C(=O)Nc2n[nH]c3nnc(-c4ccccc4)cc23)CC1,x,x,u
O=S1(=O)C=CCN1Cc1ccccc1,x,x,u
O=S1CCN(Cc2ccc(-c3ccc4ncnc(Nc5ccc(OCc6ccccc6)c(F)c5)c4c3)o2)CC1,x,x,u
Cc1ccc(NC(=O)CC2CC2)cc1-c1ccc(C(=O)NCC2CC2)cc1,x,x,3.97µM*
COc1cc(N2CCN(C(C)C)CC2)ccc1Nc1nc(Nc2ccc(F)cc2C(N)=O)c2cc[nH]c2n1,x,x,25µM*
O=S1CCN(Cc2ccc(-c3ccc4ncnc(Nc5ccc(OCc6cccc(F)c6)c(Cl)c5)c4c3)o2)CC1,x,x,u
COc1cc(Nc2nccc(Nc3ccc4c(C)[nH]nc4c3)n2)cc(OC)c1OC,x,x,25µM*
COc1ccc(NC(=O)OC[C@@H]2CSCCS(=O)(=O)N2)cc1,x,x,u
COc1cc2ncn(-c3cc(OCc4ccccc4C(F)(F)F)c(C(C)=O)s3)c2cc1OC,x,x,u
c1cnn2ncc(-c3ccnc(Nc4ccc5c(c4)OCCO5)n3)c2c1,x,x,u
C[C@@H]1CCCN1[C@@H]1C[S+](=O)([O-])N[C@@H]1COCc1ccccc1,x,x,6.6%[46.1 µM]
Cc1cccc2c(N=Nc3ccc(S(N)(=O)=O)cc3)c(O)[nH]c12,x,x,u
CCCC=Cc1ccc(CN2C(C)C(=O)N(Cc3cn(Cc4ccco4)nn3)CCS2(=O)=O)cc1 (stereo not drawn),x,x,u
CS(=O)(=O)CCNCc1ccc(-c2ccc3ncnc(Nc4ccc(OCc5ccccc5)c(Br)c4)c3c2)o1,x,x,u
FC(F)(F)c1cccc(Nc2nccc(-c3cnn4nc(-c5ccccc5)ccc34)n2)c1,x,x,u
